Bioassay records deposited in PubChem BioAssay by Broad Institute.
Hedgehog inh: Hedgehog pathway signaling inhibitors, primary screen, luminescence, Shh-LIGHT2 cells, Gli-luciferase. inhibition, % (test concentration not listed). Shh-LIGHT2 Gli-luciferase reporter, 30 h. AID 2313, 2010. 2.1% of 22,000 active;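 active means replicate mean of 65% or more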;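 further: pathway switched on by Shh-conditioned medium diluted 1 in 25 in low serum; 100 nL library stock added to about 40 µL; 0% = median of neutral wells and 100% = positive control level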
MITF inhib: inhibitors of MITF, primary screen, MITF inhibitor project, cell-based, luminescence. 0.28% of 37,000 active. TRPM1 promoter luciferase, 24 h. inhibition, % (concentration not given with the values);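 active means most replicates at 85% or more, or half of them and the mean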;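 further: human melanocyte line stably carrying TRPM1 promoter luciferase reporter; 0% = vehicle wells and 100% = a positive control; the first replicate is given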
YB-1 expression: inhibitors of YB-1 gene expression, primary screen, cell-based, fluorescence. U2OS, qRT-PCR YB-1 vs CDIP delta delta Cp, 16 h; hits give high values; zero = DMSO, each unit about twofold. delta delta Cp (YB-1 minus CDIP) (concentration not given with the values). 0.37% of 30,000 active. AID 434959, 2010;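 active means delta delta Cp rounded down to an integer at or above 3, about 3 SD of DMSO wells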;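 further: higher means less YB-1 transcript or more CDIP transcript relative to DMSO; stock transfer was 100 nL into about 100 µL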
PD-1 reverse act: activators reversing PD-1 mediated T-cell inhibition, primary screen, luminescence, primary human CD4 T cells, PD-L1 beads. CellTiter-Glo 96 h. 29,000 tested, under 10 active. activation, % (test concentration not listed);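 active means replicate mean of 50% or more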;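 further: 0% = median vehicle wells and 100% = positive control; 100 nL library stock added to about 50 µL; numbers are from one replicate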
* marks the source's active call; other numbers are inactive results; / = not tested or not shown. A portion of the library. The share of hits here may be higher or lower than overall.

smiles	Hedgehog inh	MITF inhib	YB-1 expression	PD-1 reverse act
C[C@H]1CN([C@@H](C)CO)C(=O)c2cc(NC(=O)Nc3ccccc3)ccc2O[C@H]1CN(C)S(=O)(=O)c1cccs1	-6.8	-33.7	-0.0104	-0.3
CC(C)NC(=O)Nc1ccc2c(c1)C(=O)N([C@@H](C)CO)C[C@@H](C)[C@H](CN(C)S(=O)(=O)c1cccs1)O2	/	-1.7	-0.0978	1.2
CC(=O)n1c2ccccc2c2cc(Br)ccc21	/	-33.7	-0.143	0.6
O=C(Oc1ccc(C2SCCS2)cc1)c1ccccc1Cl	-16.7	8.6	0.36	0.3
C[C@@H]1CN([C@@H](C)CO)C(=O)c2cc(NC(=O)Nc3cccc4ccccc34)ccc2O[C@H]1CN(C)S(=O)(=O)c1cn(C)cn1	-2.6	11.9	-0.436	1.1
C[C@@H]1CN([C@H](C)CO)C(=O)Cc2cc(NS(=O)(=O)c3ccc(F)cc3)ccc2O[C@H]1CN(C)S(=O)(=O)c1ccc(F)cc1	-16.0	-10.0	-0.175	1.5
C[C@@H]1CN([C@H](C)CO)C(=O)Cc2cc(NC(=O)Nc3ccc4c(c3)OCO4)ccc2O[C@@H]1CN(C)Cc1ccc(C(F)(F)F)cc1	-20.6	8.6	1.11	-2.9
C=C1CC/C=C(/C(=O)O)C[C@H](O)C2C1CC2(C)C (stereo partly drawn)	6.0	-5.4	1.36	1.0
COc1ccc(S(=O)(=O)N(C)C[C@H]2Oc3ccc(NS(=O)(=O)c4ccc(F)cc4)cc3C(=O)N([C@H](C)CO)C[C@H]2C)cc1	20.0	-15.7	-0.556	1.5
COc1ccc(OCC(O)Cn2cnc3ccccc32)cc1 (stereo not drawn)	/	-35.9	/	1.3
C[C@H](CO)N1C[C@H](C)[C@@H](CN(C)C(=O)Nc2ccc(F)cc2)Oc2ccc(NC(=O)Nc3ccc(C(F)(F)F)cc3)cc2C1=O	0.2	5.5	-0.258	-2.9
Cc1noc(C)c1S(=O)(=O)Nc1ccc2c(c1)C(=O)N([C@@H](C)CO)C[C@H](C)[C@H](CN(C)CC1CC1)O2	10.2	3.8	-0.0263	0.3
COc1ccc(CN(C)C[C@H]2Oc3ccc(NC(=O)Nc4ccc5c(c4)OCO5)cc3C(=O)N([C@@H](C)CO)C[C@@H]2C)cc1	/	-3.0	-0.0294	/
COc1ccc(Cl)cc1C(=O)N(Cc1nc(-c2ccc(C)cc2)no1)C(C)C	/	24.4	/	0.7
Cc1noc(C)c1NC(=O)N(C)C[C@@H]1Oc2ccc(NC(=O)Nc3ccc(F)cc3)cc2C(=O)N([C@H](C)CO)C[C@H]1C	-11.7	-4.5	-0.507	0.7
COc1ccc(S(=O)(=O)Nc2cccc3c2O[C@@H](CN(C)S(=O)(=O)c2ccc(C)cc2)[C@H](C)CN([C@H](C)CO)C3=O)cc1	-29.0	-3.5	-0.277	0.7
COc1nnc(-c2ccc(N3CCOCC3)c(NC(=O)COc3ccc(C)cc3)c2)c2ccccc12	/	-3.6	/	3.8
C[C@H]1CN([C@@H](C)CO)C(=O)c2cccc(NC(=O)C3CCCCC3)c2O[C@@H]1CN(C)Cc1ccc(C(F)(F)F)cc1	-39.9	-12.7	0.0228	0.8
COc1ccc(NC(=O)Nc2ccc3c(c2)C(=O)N([C@H](C)CO)C[C@H](C)[C@H](CN(C)C(=O)Nc2ccc4c(c2)OCO4)O3)cc1	4.9	-10.7	-0.0807	-0.3
Cc1c(C)n(Cc2ccc(Br)cc2)c(=O)n(Cc2ccc(Br)cc2)c1=O	/	0.8	0.0301	1.1
Cc1noc(C)c1NC(=O)N(C)C[C@H]1Oc2ccc(NC(=O)NC3CCCCC3)cc2CC(=O)N([C@@H](C)CO)C[C@@H]1C	-0.4	-14.4	0.192	0.3
C[N+]1(CC(O)CN2CCCC2=O)CCCCCC1 (stereo not drawn)	/	5.4	-0.38	1.9
COc1ccc(S(=O)(=O)Nc2cccnc2)cc1C(=O)O	/	-17.1	/	-0.4
Cc1ccc(S(=O)(=O)Nc2ccc3c(c2)CC(=O)N([C@@H](C)CO)C[C@H](C)[C@H](CN(C)C)O3)cc1	/	0.7	-0.627	0.3
C[C@@H]1CN([C@@H](C)CO)C(=O)c2cccc(NC(=O)Nc3ccc4c(c3)OCO4)c2O[C@@H]1CN(C)C(=O)Nc1ccc2c(c1)OCO2	-0.8	-10.9	0.382	-0.1
C[C@@H]1CN([C@H](C)CO)C(=O)Cc2cc(NC(=O)Nc3ccc4c(c3)OCO4)ccc2O[C@H]1CN(C)Cc1ccc2c(c1)OCO2	-67.8	0.6	0.0187	2.1
C[C@@H]1CN([C@H](C)CO)C(=O)c2cc(NS(=O)(=O)c3ccc(Cl)cc3)ccc2O[C@@H]1CN(C)C(=O)Nc1ccc2c(c1)OCO2	-11.3	-8.1	-0.178	1.0
CSc1sc(-c2ccnc(SCC(=O)C(C)(C)C)n2)c2c1C(=O)CC(C)(C)C2	48.1	-24.8	-0.32	-0.4
NC(=NC(=O)c1cnccc1C(F)(F)F)c1ccccn1	-18.0	2.1	0.26	-0.4
Cc1ccc(NCC(O)CSc2nc3c(cc2C#N)CCCC3)cc1 (stereo not drawn)	/	-9.0	/	0.4
O=c1oc2ccccc2cc1-c1csc(Cc2nc(-c3ccc(Cl)cc3)cs2)n1	/	59.9	/	-0.2
Cc1ccc(S(=O)(=O)Nc2ccc3c(c2)C(=O)N([C@@H](C)CO)C[C@H](C)[C@@H](CN(C)S(=O)(=O)c2ccccc2)O3)cc1	/	1.7	0.278	-0.3
C[C@H](CO)N1C[C@H](C)[C@H](CN(C)C(=O)Nc2ccccc2)Oc2ccc(NS(=O)(=O)c3ccc(Cl)cc3)cc2CC1=O	12.6	-14.4	-0.0589	/
COc1ccc(S(=O)(=O)N(C)C[C@H]2Oc3c(NC(=O)NC4CCCCC4)cccc3C(=O)N([C@@H](C)CO)C[C@H]2C)cc1	38.5	9.7	0.25	-2.5
COc1ccc(CN(C)C[C@H]2Oc3c(NC(=O)C4CCCCC4)cccc3C(=O)N([C@H](C)CO)C[C@@H]2C)cc1	-30.4	7.3	0.179	-1.5
C[C@@H]1CN([C@@H](C)CO)C(=O)c2cccc(NC(=O)C3CCOCC3)c2O[C@H]1CN(C)Cc1ccc(C(=O)O)cc1	-17.3	-1.4	-0.0559	0.3
CC(C)n1c(SCCC(=O)O)nc2ccccc21	/	0.6	/	0.8
COc1ccc(-c2cc(C(F)(F)F)c(C#N)c(SCC(=O)Nc3ccccc3F)n2)cc1	/	-16.3	/	0.5
COc1ccc(S(=O)(=O)Nc2ccc3c(c2)C(=O)N([C@@H](C)CO)C[C@@H](C)[C@H](CN(C)S(=O)(=O)c2cn(C)cn2)O3)cc1	-6.2	-4.2	-0.2	0.5
C[C@@H]1CN([C@H](C)CO)C(=O)c2cc(NC(=O)Nc3ccc(F)cc3)ccc2O[C@H]1CN(C)Cc1ccc(Cl)c(Cl)c1	-39.5	5.1	0.218	1.4
COc1ccc(NC(=O)Nc2cccc3c2O[C@@H](CN(C)S(=O)(=O)c2ccc(C)cc2)[C@@H](C)CN([C@H](C)CO)C3=O)cc1	93.6*	-19.3	0.44	-3.0
COc1ccc(Cl)cc1NC(=O)Cn1c(=O)oc2ccccc21	/	1.5	/	-0.4
O=C1C=C(NC2CCCC2)CC(c2ccccc2)C1 (stereo not drawn)	7.1	-5.2	-0.287	0.2
C[C@H](CO)N1C[C@H](C)[C@H](CN(C)S(=O)(=O)c2ccc(F)cc2)Oc2ccc(NS(=O)(=O)c3cn(C)cn3)cc2C1=O	/	-6.6	-0.126	0.8
Cc1cc(Cl)ccc1NC(=O)CN(c1ccc(Cl)c(Cl)c1)S(C)(=O)=O	/	0.4	/	-2.0
O=S1(=O)N=C(N(CCO)c2ccc(Cl)cc2)c2ccccc21	/	8.4	/	-2.4
CC(C)NC(=O)N(C)C[C@H]1Oc2c(NS(=O)(=O)c3ccc(Cl)cc3)cccc2C(=O)N([C@@H](C)CO)C[C@H]1C	3.8	6.6	-0.254	/
Cc1nc(SCC(=O)NCc2ccco2)c2c(C)c(C)sc2n1	/	-4.5	/	-1.2
C[C@H]1CN([C@@H](C)CO)C(=O)c2cc(NS(C)(=O)=O)ccc2O[C@@H]1CN(C)Cc1ccc(-c2ccccc2)cc1	/	-5.5	0.0451	-0.9
CCCc1ccc(Oc2ccc(NC(=O)C3CC3C(=O)O)cn2)c(OC)c1 (stereo not drawn)	-5.3	1.1	0.0237	1.5
CC(C)NC(=O)N(C)C[C@@H]1Oc2ccc(NS(=O)(=O)c3cccs3)cc2CC(=O)N([C@@H](C)CO)C[C@@H]1C	-5.0	-2.3	0.0962	1.0
CC1(C)CC[C@]2(C(=O)O[C@@H]3O[C@H](CO)[C@@H](O)[C@H](O)[C@H]3O)CC[C@]3(C)C(=CCC4[C@@]5(C)C[C@@H](O)[C@H](O)[C@@](C)(CO)C5[C@H](O)C[C@]43C)C2C1 (stereo partly drawn)	-1.5	/	0.239	/
O=C(Nc1cc(S(=O)(=O)c2ccccc2)cs1)c1ccc(Cl)cc1	4.3	45.4	0.117	-0.3
COc1ccc(NC(=O)CC2Nc3cccc4cccc(c34)NC2=O)cc1 (stereo not drawn)	/	53.3	/	-4.7
NC(N)=Nc1nc(CSCC/C(N)=N\S(N)(=O)=O)cs1	40.8	1.4	0.346	3.0
C[C@@H]1CN([C@H](C)CO)C(=O)c2cccc(NC(=O)C3CC3)c2O[C@@H]1CN(C)C(=O)Nc1ccccc1	34.3	-9.9	0.631	/

(list continues)
smiles	Hedgehog inh	MITF inhib	YB-1 expression	PD-1 reverse act
O=C(COc1ccccc1)Nc1ccc2oc(-c3cccc(Cl)c3Cl)nc2c1	/	-1.1	/	-6.6
Cc1cc([N+](=O)[O-])ccc1NC(=O)CSc1n[nH]c(-c2ccc(Cl)cc2)n1	/	67.3	/	0.3
COc1ccc(CN(C)C[C@@H]2Oc3ccc(NC(=O)C4CC4)cc3CC(=O)N([C@H](C)CO)C[C@@H]2C)cc1	38.5	-25.5	0.567	/
CN(C(=O)CN(CCO)CC(=O)N(C)C(C)(C)Cc1ccccc1)C(C)(C)Cc1ccccc1	28.5	5.6	-0.114	6.2
C[C@H]1CN([C@@H](C)CO)C(=O)c2cc(NC(=O)CCCN(C)C)ccc2O[C@@H]1CN(C)S(C)(=O)=O	/	10.8	-0.291	/
COc1ccc(NC(=O)Nc2cccc3c2O[C@@H](CN(C)Cc2ccc(C(=O)O)cc2)[C@H](C)CN([C@H](C)CO)C3=O)cc1	-39.9	0.3	0.0604	/
CCOc1ccc(Cl)cc1S(=O)(=O)NCc1cccnc1	/	-24.5	/	1.6
Cc1ccc(S(=O)(=O)N(C)C[C@@H]2Oc3ccc(NC(=O)Nc4cccc5ccccc45)cc3C(=O)N([C@H](C)CO)C[C@H]2C)cc1	-13.1	-4.0	0.294	0.2
CC(C)NC(=O)N(C)C[C@@H]1Oc2ccc(NC(=O)C3CC3)cc2C(=O)N([C@H](C)CO)C[C@@H]1C	-58.9	-0.3	0.106	/
C[C@@H]1CN([C@H](C)CO)C(=O)c2cc(NC(=O)Nc3ccc(F)cc3)ccc2O[C@@H]1CN(C)Cc1ccncc1	/	2.9	0.105	-0.1
CC(C)NC(=O)N(C)C[C@@H]1Oc2ccc(NC(=O)CCN3CCOCC3)cc2C(=O)N([C@H](C)CO)C[C@H]1C	-43.0	2.1	-0.127	/
COc1ccc(CN(C(=O)c2oc3cc(C)c(C)cc3c2C)C2CCS(=O)(=O)C2)cc1OC (stereo not drawn)	/	-14.1	/	0.7
COc1ccc(S(=O)(=O)N(C)C[C@@H]2Oc3c(NC(=O)c4cc(C)nn4C)cccc3C(=O)N([C@H](C)CO)C[C@@H]2C)cc1	-16.9	-31.0	-0.928	1.5
CC(C)NC(=O)Nc1ccc2c(c1)C(=O)N([C@H](C)CO)C[C@@H](C)[C@H](CN(C)C(=O)Nc1cccc3ccccc13)O2	/	0.7	-0.143	/
C[C@H]1CN([C@@H](C)CO)C(=O)c2cccc(NC(=O)c3ccncc3)c2O[C@H]1CN(C)Cc1ccc(-c2ccccc2)cc1	6.6	-19.2	0.155	-2.5
Cc1noc(C)c1NC(=O)Nc1ccc2c(c1)C(=O)N([C@H](C)CO)C[C@@H](C)[C@H](CN(C)S(C)(=O)=O)O2	-25.3	-0.9	-0.222	0.1

A draw from above in order of molar mass, low to high:
smiles	Hedgehog inh	MITF inhib	YB-1 expression	PD-1 reverse act
CC(C)NC(=O)N(C)C[C@@H]1Oc2ccc(NC(=O)C3CC3)cc2C(=O)N([C@H](C)CO)C[C@@H]1C	-58.9	-0.3	0.106	/
CC(C)NC(=O)N(C)C[C@@H]1Oc2ccc(NC(=O)CCN3CCOCC3)cc2C(=O)N([C@H](C)CO)C[C@H]1C	-43.0	2.1	-0.127	/
C[C@H]1CN([C@@H](C)CO)C(=O)c2cccc(NC(=O)c3ccncc3)c2O[C@H]1CN(C)Cc1ccc(-c2ccccc2)cc1	6.6	-19.2	0.155	-2.5
